MLL AF4-AF9 inh = inhibitors of AF4 peptide binding to AF9, primary screen, biochemical, AlphaScreen, biotin-AF4 peptide, FLAG-AF9, single point; inhibition, % at 10 µM; 350,000 compounds, 0.47% hits;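 active means every replicate reaching a set inhibition limit, whatever the replicate mean, cut at about 25% in these data; inconclusive means mean inhibition reaches that limit but some replicates miss it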;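 further: 0% = plate neutral control median and 100% = total signal loss; the record names both 10 and 1 µM as test concentration; the first replicate is given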
Ecoli growth = E. coli growth inhibition, primary screen, OD600 | 330,000 compounds, 0.21% hits | Escherichia coli growth, 23 h; stronger effect = lower value | OD600 absorbance (concentration not given with the values) | AID 1053175, 2014;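 active means OD600 absorbance below the run mean of sample wells minus 3.6 SD, in any replicate, cut at about 0.56 in these data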;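 further: stock transfer was 300 nL into about 60 µL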
Ecoli rRNA inh = reduced GFP signal of wild-type E. coli, primary screen, bacterial rRNA inhibitor project, GFP/RFP fluorescence, OD600, single point. E. coli WT GFP vs humanized-ribosome RFP mutants, 24 h; stronger effect = lower value; DMSO median 0, no signal -100. GFP signal change (wild-type ribosome), % (no concentration beside the values). 350,000 compounds, 1.6% hits. AID 720706, 2013;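 active means significant combined selectivity score with lowered wild-type GFP, culture density cut under 30%, mutant RFP and density less affected; inactive means any of these conditions unmet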; further: one replicate is shown; some compounds called inactive have numbers as strong as hits
Vif A3G = inhibitors of Vif binding to APOBEC3G peptide, primary screen, biochemical, TR-FRET, GST-Vif 1-94, biotin-A3G peptide, dose response retest (AID 1117319) | Virion infectivity factor (Human immunodeficiency virus type 1 group M subtype B (isolate … | TR-FRET GST-Vif / biotin-A3G peptide binding; higher % means a stronger effect; test concentration not given here; strong numbers were not always called active | inhibition, %, or IC50 in µM where a hit was titrated | 260,000 compounds, 0.57% hits;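 active means above the screen mean plus three standard deviations and confirmed in dose response; inconclusive means results disagree or hit not tested in dose response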;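 further: Vif residues 1-94 fused to GST binding biotinylated APOBEC3G peptide 110-148; 0% = full assay without inhibitor and 100% = GST in place of GST-Vif; retest series ran down from 100 µM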
FGF22 binding = binders of human FGF22 protein, primary screen, FGF22 synaptogenesis inhibitor project, biophysical, thermal shift, single point | AID 651658, 2012 | recombinant FGF22 thermal shift, SYPRO orange fluorescence; percent of sucrose octasulfate shift, DMSO zero | 340,000 compounds, 1.5% hits | calls only at 9.99 µM | Fibroblast growth factor 22 (Homo sapiens), Q9HCT0;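 active means melting point raised past a set limit in the mean and every replicate; inconclusive means no clear call; three in four hits are not shown here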
Target sequence (Q9HCT0 whole entry, looked up): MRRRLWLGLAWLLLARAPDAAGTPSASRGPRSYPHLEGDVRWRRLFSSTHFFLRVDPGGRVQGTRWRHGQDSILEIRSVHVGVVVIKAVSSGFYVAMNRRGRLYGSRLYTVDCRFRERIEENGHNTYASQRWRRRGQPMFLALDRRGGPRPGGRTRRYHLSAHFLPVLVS
HNF4A DNA FP = change in binding of human HNF4A to DNA, primary screen, biochemical, fluorescence polarization, FITC-DNA | Hepatocyte nuclear factor 4-alpha (Homo sapiens), P41235 | 1 h | activity change, % at 10 µM | 360,000 compounds, 0.3% hits; in the data active means activity change above about 30%, passing the limit was not always enough;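 further: controls were the assay level and a saturating level of protein; the project sought stronger binding though the title names inhibitors; some compounds called inactive have numbers as strong as hits; positive values seem to mean higher polarization but the record does not say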
Target sequence (P41235 whole entry, looked up): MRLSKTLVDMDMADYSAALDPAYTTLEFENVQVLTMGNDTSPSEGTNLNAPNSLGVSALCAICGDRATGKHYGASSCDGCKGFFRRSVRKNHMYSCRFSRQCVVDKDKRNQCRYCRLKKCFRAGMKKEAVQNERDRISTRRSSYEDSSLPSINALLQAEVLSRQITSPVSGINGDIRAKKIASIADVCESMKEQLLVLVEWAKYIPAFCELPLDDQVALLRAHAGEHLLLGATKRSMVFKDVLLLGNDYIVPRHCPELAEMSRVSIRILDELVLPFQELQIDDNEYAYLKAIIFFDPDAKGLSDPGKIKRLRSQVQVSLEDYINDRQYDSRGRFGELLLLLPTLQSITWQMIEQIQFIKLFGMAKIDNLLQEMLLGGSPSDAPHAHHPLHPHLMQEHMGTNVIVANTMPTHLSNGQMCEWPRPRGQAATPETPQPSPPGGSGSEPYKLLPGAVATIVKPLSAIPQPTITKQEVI
ALR inh = inhibitors of human ALR sulfhydryl oxidase, primary screen, biochemical, H2O2 detection, HRP-luminol luminescence, single point. purified ALR, DTT oxidation. inhibition, % (concentration not given with the values). 290,000 compounds, 3.8% hits. AID 485317, 2010;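 active means mean and each replicate at 75% or more; inconclusive means only one of the two met; inactive means neither met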;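 further: stock transfer was 7.5 nL into about 7.5 µL; 0% = neutral wells and 100% = wells with inactivated enzyme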
Target sequence (P55789 whole entry, looked up): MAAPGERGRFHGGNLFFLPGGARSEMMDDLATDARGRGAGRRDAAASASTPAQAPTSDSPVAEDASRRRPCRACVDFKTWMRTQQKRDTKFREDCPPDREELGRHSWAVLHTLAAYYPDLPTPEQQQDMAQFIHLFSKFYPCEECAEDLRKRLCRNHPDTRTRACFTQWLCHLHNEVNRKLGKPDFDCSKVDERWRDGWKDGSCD
Ecoli rRNA inh OD600 = second read-out of Ecoli rRNA inh, no call of its own (marks repeat the call); OD600 change, %; measured here: OD600 growth;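 optical density of the mix in the first replicate; 0 = DMSO median and -100 = no signal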
Ecoli rRNA inh RFP = recorded beside Ecoli rRNA inh, whose call it bears; RFP signal change, %; measured here: RFP humanized mutant strains;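 first replicate; 0 = DMSO median and -100 = no signal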
* marks the source's active call; other numbers are inactive results; i = inactive; ? = inconclusive; . = no result given; + = active, no number; & = joins results of further samples. The list is partial; count on the stated rates, not on these rows.

A first look, four compounds:
SMILES	MLL AF4-AF9 inh	Ecoli growth	Ecoli rRNA inh	Ecoli rRNA inh OD600	Ecoli rRNA inh RFP	Vif A3G	FGF22 binding	HNF4A DNA FP	ALR inh
COc1ccccc1NC(=O)c1cc2c(s1)-c1ccccc1S(=O)(=O)C2	-3.4	0.69	5	18	1.4	16%	i	0.5	-2
C/C=C/c1ccc([C@@H]2[C@@H](C#N)N(C(=O)NC3CCCC3)[C@@H]2CO)cc1	-1.9	.	0	-2	-0.8	.	i	.	.
O=C(Nc1nnc(CCS(=O)(=O)c2ccc3ccccc3c2)s1)c1ccc([N+](=O)[O-])cc1	0.3	0.73	.	.	.	-7%	i	-3.3	-42
CC(=O)Nc1cc(-c2ccc(CO)cc2)cn2c(-c3ccc(F)cc3)cnc12	1.2	.	7	13	-1.8	.	i	1.6	.

The listing (from the top)
SMILES	MLL AF4-AF9 inh	Ecoli growth	Ecoli rRNA inh	Ecoli rRNA inh OD600	Ecoli rRNA inh RFP	Vif A3G	FGF22 binding	HNF4A DNA FP	ALR inh
COc1ccccc1NC(=O)c1cc2c(s1)-c1ccccc1S(=O)(=O)C2	-3.4	0.69	5	18	1.4	16%	i	0.5	-2
C/C=C/c1ccc([C@@H]2[C@@H](C#N)N(C(=O)NC3CCCC3)[C@@H]2CO)cc1	-1.9	.	0	-2	-0.8	.	i	.	.
O=C(Nc1nnc(CCS(=O)(=O)c2ccc3ccccc3c2)s1)c1ccc([N+](=O)[O-])cc1	0.3	0.73	.	.	.	-7%	i	-3.3	-42
CC(=O)Nc1cc(-c2ccc(CO)cc2)cn2c(-c3ccc(F)cc3)cnc12	1.2	.	7	13	-1.8	.	i	1.6	.
COc1ccc(N=C2SC(C(=O)O)CC(=O)N2C)cc1 (centres undefined)	.	0.73	.	.	.	-2%	.	4.2	-6
c1ccc(-n2nnnc2-c2cccc3ccccc23)cc1	-0.5	0.67	-34	-44	-14	3%	i	2.5	.
CCOC(=O)C1CCN(CC(=O)Nc2cc(C)nn2-c2nc3ccccc3s2)CC1	.	0.69	.	.	.	12%	.	-2.7	.
COCCSc1ccccc1C(=O)Nc1ccc2c(c1)OCCO2	.	0.7	.	.	.	17%	.	2.7	-21
CCOc1ccccc1N(C)S(=O)(=O)c1ccc2[nH]cc(C(=O)N(CCOC)CCOC)c(=O)c2c1	1.5	0.69	5	8	2.4	5%	i	3.3	1
C[C@H]1CN([C@@H](C)CO)C(=O)c2cc(NC(=O)CCC(F)(F)F)ccc2O[C@@H]1CN(C)Cc1ccc(C(F)(F)F)cc1	0.6	.	-2	-1	-2.2	.	i	.	.
Cc1ccc(S(=O)(=O)N(C)C)cc1NC(=O)c1ccncc1	-1.1	0.67	21	23	1.2	-6%	i	2.6	-2
Cc1nc2nc(-c3cccnc3)nn2c(C)c1Cl	.	0.66	.	.	.	-1%	.	2.2	.
CC(=O)c1cccc(-n2nnnc2SCC(=O)Nc2cc(C)on2)c1	-2.9	0.67	5	8	-3.3	.	i	0.5	-6
N#C[C@@H]1[C@@H](c2ccccc2)[C@@H](CO)N1C(=O)Cc1ccccn1	-2.0	.	5	12	-1.7	.	i	.	.
C[C@@H]1CN([C@H](C)CO)C(=O)Cc2cc(NS(=O)(=O)c3ccc(Cl)cc3)ccc2O[C@@H]1CN(C)Cc1ccc(C(=O)O)cc1	2.1	.	4	5	-1.7	.	i	.	.

Entries above that contain two or more sulfur atoms (two):
SMILES	MLL AF4-AF9 inh	Ecoli growth	Ecoli rRNA inh	Ecoli rRNA inh OD600	Ecoli rRNA inh RFP	Vif A3G	FGF22 binding	HNF4A DNA FP	ALR inh
COc1ccccc1NC(=O)c1cc2c(s1)-c1ccccc1S(=O)(=O)C2	-3.4	0.69	5	18	1.4	16%	i	0.5	-2
O=C(Nc1nnc(CCS(=O)(=O)c2ccc3ccccc3c2)s1)c1ccc([N+](=O)[O-])cc1	0.3	0.73	.	.	.	-7%	i	-3.3	-42

The listing continues.
SMILES	MLL AF4-AF9 inh	Ecoli growth	Ecoli rRNA inh	Ecoli rRNA inh OD600	Ecoli rRNA inh RFP	Vif A3G	FGF22 binding	HNF4A DNA FP	ALR inh
CCn1c(SCC(=O)NCc2ccco2)nc2ccccc2c1=O	-0.5	0.68	2	-13	-2.6	-2%	i	4.2	-1
O=C(Nc1ccncc1)c1cc(S(=O)(=O)N2CCN(c3ccccc3)CC2)ccc1Cl	-7.7	0.66	-7	-24	-1.2	0%	i	-0.1	2
O=C1N/C(=C/c2ccc(N3CCCC3)cc2)C(=O)N1c1ccccc1	-4.1	0.68	2	10	-8.0	?	i	16	1
Brc1ccccc1CN1CCC(Cc2ccccc2)CC1	3.4	0.59	-25*	-12*	-3.4*	.	i	4.1	0
CCCNC(=O)N1CC2(CCN(S(=O)(=O)c3ccc(OC)cc3)CC2)c2c(n(C)c3cc(OC)ccc23)[C@H]1CO	1.7	.	-7	-14	5.4	.	i	.	.
Cc1nc2ccc(S(=O)(=O)Nc3cc(-c4nc5cccnc5s4)ccc3C)cc2s1	-4.0	0.74	-11	-28	0.8	?	i	9.7	-14
COc1ccc(-c2csc3ncnc(N4CCN(c5ccc(OC)cc5)CC4)c23)cc1	9.4	0.67	-4	-5	0.2	.	i	4.2	4
CS(=O)(=O)c1ccc(Cl)c(NC(=O)COC(=O)/C=C/c2cnc3ccccc3n2)c1	-2.6	0.71	7	0	1.9	-10%	i	-4.9	.
CNC(=O)CCc1nc(-c2ccc(C(C)(C)C)cc2)no1	.	0.78	.	.	.	1%	.	-0.5	-30
Cc1cccc(N2C(N)=NC(N)=NC23CCCCC3)c1	.	0.67	.	.	.	-1%	.	-1.3	-5
Cc1cccc(S(=O)(=O)c2c(N)n(Cc3ccco3)c3nc4ccccc4nc23)c1	.	0.68	.	.	.	18%	.	8.7	-1
Cc1cc(C(=O)CN2C(=O)NC3(CCCCC3)C2=O)c(C)n1-c1ccc2c(c1)OCO2	7.1	0.71	-14	-38	14	24%	i	-1.0	-9
O=C(NCC1CCN(c2ccc(S(=O)(=O)N3CCOCC3)cc2)CC1)c1ccc(Cl)cc1	.	0.75	.	.	.	-2%&1%	.	-1.4	-22
COc1ccc(C2c3c4c(n(C)c3CCN2C)CCN(C)C4c2ccc(OC)cc2)cc1 (centres undefined)	.	0.66	.	.	.	0%	.	-2.6	1
COc1cccc(NC(=O)C[C@@H]2CC[C@@H]3[C@@H](COc4ccc(NC(=O)C5CCCC5)cc4C(=O)N3C)O2)c1	-0.3	.	-3	-3	2.1	.	i	.	.
CC1=C(C#N)C(Nc2cccc(C)n2)(C(F)(F)F)C(=O)N1 (centres undefined)	.	0.73	.	.	.	17%	.	1.4	-20
COc1ccccc1CNC(=O)C[C@H]1C[C@@H]2c3cc(NC(=O)C4CCOCC4)ccc3O[C@@H]2[C@@H](CO)O1	-0.2	.	0	-4	-1.7	.	i	.	.
N=c1n(Cc2ccc(Cl)cc2)c2ccccc2n1CC(O)c1ccco1 (centres undefined)	.	0.67	.	.	.	-1%	.	6.2	-6
CN(C)c1ccc(NC(=O)c2ccc(Cn3cc([N+](=O)[O-])cn3)cc2)cc1	16	0.66	-6	10	1.4	-13%	i	3.6	.
O=C(COc1ccccc1[N+](=O)[O-])OC1CCS(=O)(=O)C1 (centres undefined)	-2.9	0.69	13	17	2.9	10%	i	1.1	0
COc1ccc(-c2nnn(CCc3nn[nH]n3)n2)cc1OC	.	0.7	.	.	.	9%	.	2.2	-1
Cc1nc(C(F)(F)F)ccc1C(=O)N1CCCCC1	-1.5	0.65	10	5	0.3	-4%	i	-3.2	-2
CN1C(=C2C(=O)OC(C)(C)OC2=O)Sc2ccccc21	0.5	0.67	18	14	-0.4	-3%	i	-0.5	-8
Cc1ccc(S(=O)(=O)N2C[C@H]3C(=O)C[C@@H](c4ccccc4)N(S(C)(=O)=O)[C@H]3C[C@H]2c2ccccc2)cc1	-0.8	.	-5	24	3.2	.	i	1.6	.
O=C(C[C@@H]1CC[C@H](NC(=O)C2CC2)[C@@H](CO)O1)Nc1nccs1	-1.8	.	0	-3	-0.9	.	i	.	.
Cc1nc2c(OCc3ccc(F)cc3)cccn2c1N(C)C(=O)CCC1CCCC1	2.8	.	-53	-72	-11	.	i	0.3	.
C[C@H]1CN([C@@H](C)CO)C(=O)c2cccc(NS(=O)(=O)c3cccs3)c2O[C@H]1CN(C)S(=O)(=O)c1ccc(Cl)cc1	-2.7	.	-5	-4	0.1	.	i	.	.
CCCNC(=O)Nc1ccc2c(c1)C(=O)N(C)C[C@H](OC)[C@H](C)CN(S(C)(=O)=O)[C@@H](C)CO2	-11	.	2	2	-0.3	.	i	.	.
O=C(O)c1ccc(N2C(=O)CC(N3CCN(c4cccc(C(F)(F)F)c4)CC3)C2=O)cc1 (centres undefined)	-1.2	0.68	-9	-8	-4.3	-8%	i	0.8	0
O=C(N/N=C/c1ccncc1)c1cccc(N/N=C/c2ccncc2)c1	2.8	.	-3	-12	-3.0	8%	+	-0.7	96*

Compound profiles (already shown). Values in the order: MLL AF4-AF9 inh, Ecoli growth, Ecoli rRNA inh, Ecoli rRNA inh OD600, Ecoli rRNA inh RFP, Vif A3G, FGF22 binding, HNF4A DNA FP, ALR inh
Entry for N=c1n(Cc2ccc(Cl)cc2)c2ccccc2n1CC(O)c1ccco1 (centres undefined) = ., 0.67, ., ., ., -1%, ., 6.2, -6
Entry for COc1ccccc1CNC(=O)C[C@H]1C[C@@H]2c3cc(NC(=O)C4CCOCC4)ccc3O[C@@H]2[C@@H](CO)O1 = -0.2, ., 0, -4, -1.7, ., i, ., .
Entry for CC1=C(C#N)C(Nc2cccc(C)n2)(C(F)(F)F)C(=O)N1 (centres undefined) = ., 0.73, ., ., ., 17%, ., 1.4, -20
Entry for Cc1nc2c(OCc3ccc(F)cc3)cccn2c1N(C)C(=O)CCC1CCCC1 = 2.8, ., -53, -72, -11, ., i, 0.3, .

The list continues.
SMILES	MLL AF4-AF9 inh	Ecoli growth	Ecoli rRNA inh	Ecoli rRNA inh OD600	Ecoli rRNA inh RFP	Vif A3G	FGF22 binding	HNF4A DNA FP	ALR inh
CCC/C(=N\NC(=O)CNC(=O)c1ccc(Cl)cc1)c1ccccc1	1.0	.	7	8	-4.7	-8%	i	-1.8	-1
O=C(CNC(=O)c1ccc(Cl)cc1)c1ccccc1	-4.3	0.69	10	7	1.9	.	i	-1.4	1
C=CCOc1ccc(/C(O)=C2/C(=O)C(=O)N(CCCN3CCOCC3)C2c2ccccc2)cc1 (centres undefined)	.	0.67	.	.	.	-8%	.	-1.7	11
O=C(Cn1cc(/C=C\[N+](=O)[O-])c2ccccc21)Nc1ccccc1	-12	0.65	-9	-5	8.0	-8%	i	3.1	-8
Cc1cccc(NC(=S)NC(C)C(c2cccs2)N2CCN(C)CC2)c1C (centres undefined)	4.1	0.73	6	-7	-2.6	-7%	i	0.7	.
CCOC(=O)c1c(NC(=O)CN2CCOCC2)sc2c1CCCC2=O	.	0.69	.	.	.	-4%	.	0.9	.
CSCC[C@H](NC(=O)OC(C)(C)C)c1nnc(SCC(=O)Nc2ccc(C)cc2C)o1	.	0.75	.	.	.	?	.	0.1	-11
